NPYLR7 agonist – activates Aedes aegypti NPYLR7 receptor; activation, % at 10 µM; hit rate 0.15% among 270,000; HEK293T NPYLR7/Galpha15, GCaMP6s calcium fluorescence; in the data active = activation above about 40%;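 also: 0% = vehicle and 100% = reference agonist at the receptor; some compounds past the cut are filed as inactive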
NPYLR7 agonist max-min – recorded beside NPYLR7 agonist, whose call it bears; activation, %; measured here: Max-Min RFU normalised activation; some inactives read as strong as hits;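 span of the calcium signal over five minutes; 0% = vehicle and 100% = native peptide agonist; compound fluorescence can raise it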
Starred values were filed as active, the others as inactive; & = joins results of further samples. The list is partial (hit frequency here may not be typical).

SMILES	NPYLR7 agonist	NPYLR7 agonist max-min
O=C(NCCN1CCOCC1)N1CCN(S(=O)(=O)c2c(Cl)cccc2Cl)CC1	-2.4	-4.2
Cc1ccccc1C(NC(=O)C1CCN(CCOc2ccc(F)cc2)CC1)c1cnccn1 (configuration not stated)	-3.3	-9.4
CCOc1ccc(C(=O)CSc2nnc3n(Cc4ccccc4)c(=O)c4ccccc4n23)cc1	-1.0	-0.2
CCCN(Cc1cc(NC(=O)COC)ccc1N(C)C)C(=O)c1cccs1	-4.9	0.0
COc1nc(-c2ccc(Cl)c(Cl)c2)n(-c2cccc(NC(=O)c3cccc([N+](=O)[O-])c3)c2)n1	-2.3	-0.3
O=C(CN(CC1CCCO1)C(=O)Nc1c(Cl)cccc1Cl)N(Cc1ccccc1)Cc1ccco1 (configuration not stated)	-8.4	-7.4
O=C(Cn1cnc2c(nnn2-c2cccc(F)c2)c1=O)N1CCCC1	-4.0	-9.4
O=C(O)C1(O)c2ccccc2NC(=S)N1Cc1ccccc1 (configuration not stated)	-1.4	-1.6
O=C(c1ccc(-c2ccco2)cc1)N1CCC2(CCCN(CC3CC3)C2)C1 (configuration not stated)	15.0	-1.3
O=C(CCN(Cc1ccco1)c1nc(-c2ccc(F)cc2)nc2ccccc12)Nc1cccc(F)c1	3.4	4.7

Quoted at random: 2 records from the list, in no set order.
SMILES	NPYLR7 agonist	NPYLR7 agonist max-min
O=C(Cn1cnc2c(nnn2-c2cccc(F)c2)c1=O)N1CCCC1	-4.0	-9.4
Cc1ccccc1C(NC(=O)C1CCN(CCOc2ccc(F)cc2)CC1)c1cnccn1 (configuration not stated)	-3.3	-9.4

Other structures follow.
SMILES	NPYLR7 agonist	NPYLR7 agonist max-min
Cc1cc(CS(=O)(=O)C(C)c2nnc(C)o2)no1 (configuration not stated)	7.6	0.6
COc1ccc2c(c1)CCc1cc(CCC(=O)NCCCN3CCOCC3)n(-c3ccc4ncsc4c3)c1-2	2.0	0.5
Cn1c(=O)c2c(nc(SCCN3CCOCC3)n2Cc2ccccc2)n(C)c1=O	-2.8	-2.4
CCS(=O)(=O)c1ccc2c(c1)N(c1cccc(O)c1)C(=O)C(C)O2 (configuration not stated)	9.6	4.7
N#CC1(C(=O)OCc2cc(-c3ccccc3)no2)CCCC1	1.2	-0.7
O=C(NCCSc1ncn[nH]1)c1ccc(NC(=O)C2CCC2)cc1	2.3	-1.0
O=C(c1ccccc1)N1CC(=O)N2CCc3cc(F)ccc3C2C1 (configuration not stated)	-10.4	-0.8
Cc1cc(=O)n(C)cc1NC(=O)c1ccc2[nH]ccc2c1	3.5	0.3
O=C(c1cccc(Br)c1)N1CCC(c2ccccc2)CC1	-6.2	-13.6
CC(C)(C)NC(=O)c1cc(-c2cc(C(=O)NC(C)(C)C)c3ccccc3n2)nc2ccccc12	-6.7	-10.4
O=C(O)c1cc(S(=O)(=O)N2CCCc3ccc(F)cc32)cc2c1OCCO2	3.6	2.4
CC1C(=O)N(c2ccc(F)cc2)CCN1C(=O)c1ccccc1Cl (configuration not stated)	-1.6	-0.2
COc1ccc(C=NNC(=O)C[n+]2ccccc2)c(OC)c1OC	7.0	4.9
COc1ccc(C(C)C)cc1-c1nccnc1NCCc1ccccn1	4.6	-3.5
O=C(NC1CCCCC12OCCO2)c1c(Cl)nc2ccccn12 (configuration not stated)	7.1	4.0
CCCCOc1ccc(S(=O)(=O)NCCOc2ccc3nnc(C)n3n2)cc1	1.3	1.9
COc1ccc(OC)c(CN(Cc2ccc(F)cc2)Cc2nc(C(=O)NCCN(C)C)co2)c1	18.1	35.3
CCCNC(=O)c1ccc(-c2ccc(OC)c(OC)c2)o1	12.3	10.8
COc1ccc(Br)cc1S(=O)(=O)N1CCC2(CC1)C(=O)NCN2c1ccccc1	1.9	-5.3
CN(CCc1ccccn1)C(=O)NCCc1ccccc1	14.5	12.4
Cc1ccc(-c2nnc3n2CCCCC3)cc1N	0.5	3.4
Cc1ccsc1CN(C)Cc1nc(N)nc(Nc2ccccc2)n1	-1.8	-2.2
O=C(CSc1nc2ccccc2s1)N=Nc1c(O)[nH]c2ccccc12	12.6	7.9
COc1cc(C2SCCS2)ccc1O	-2.1	-3.6
O=C(Nc1ccc(Nc2cc(-n3cccn3)ncn2)cc1)C(c1ccccc1)c1ccccc1	-7.8	-13.0
O=C(c1cc(F)cc2c1OCOC2)N1CCOC(Cc2ccccc2)C1 (configuration not stated)	20.3	18.0
O=C(c1cc(-n2cccc2)ccc1O)N1CCC2(CCOCC2)CC1	-3.4	-3.4
CCn1cc(C(=O)N2CCN(Cc3ccc(C(=O)OC)o3)CC2)c2nn(-c3ccccc3)c(=O)c-2c1	-1.8	-6.5
O=C(NC1CCN(c2ccccc2C(=O)N2CCCC2)CC1)c1ccc(F)cc1F	0.1	3.9
O=C(Nc1nc(-c2cc([N+](=O)[O-])cs2)cs1)c1ccc(C(=O)c2ccccc2)cc1	2.4	8.4
O=C1CCCN1c1ccc(C2=NNC(=NCc3ccccc3)SC2)cc1	7.2	2.8
CCC(C)(C)NS(=O)(=O)c1ccc(Cl)cc1C(F)(F)F	0.4	-2.7
COc1ccc(-n2c(C)cn3c4c(=O)n(CC(C)=O)c(=O)n(C)c4nc23)cc1	5.8	3.7
C=CCN(c1ccccc1)S(=O)(=O)c1ccc2c(c1)CCN2C(C)=O	-0.2	-1.7
CCn1ncnc1CN1CCN(c2cc(OC)ncn2)CC1	15.9	-4.7
CC(=O)Nc1cc(NC(=O)c2nc(C(C)C)cs2)ccc1Cl	38.4	24.7
CCc1nc2n(n1)CC(NCc1c(Cl)nc3sccn13)CC2 (configuration not stated)	0.2	-2.2
CCOC(=O)c1sc(NC(=O)CSc2ncnc3sc(C)c(C)c23)c(C(=O)OCC)c1C	-5.7	-9.6
O=C(C[n+]1cc(=O)o[nH]1)NC1CCCc2c1cnn2-c1ccc(F)cc1F (configuration not stated)	11.2	2.4
O=S1(=O)C=C(Sc2nc3cc(Cl)ccc3o2)c2ccccc21	-3.5	-2.8
O=C(CSc1ccccc1)N1CCCC(N2CCN(c3cccc(Cl)c3)CC2)C1 (configuration not stated)	5.2&1.7	2.4&1.6
CC(C)CN1CC(CN2CCOCC2)Oc2ncccc2S1(=O)=O (configuration not stated)	2.6	6.2
Fc1ccc2nc3[nH]c4ccccc4c3nc2c1	-2.8	-8.3
Cc1nn(CCO)cc1CN1CCN(Cc2ccc(Cl)cc2)CC1	1.3	-1.0
COCC(c1ccccn1)N(C)Cc1cn[nH]c1-c1ccc(F)cc1 (configuration not stated)	0.1	1.7
O=[N+]([O-])c1cc(C(F)(F)F)ccc1NN=Cc1ccc2ncccc2c1	6.4	5.4
CNC(=O)c1ccccc1-c1cccc(NC(C)=O)c1	4.5	-1.1
COc1ccc(-c2nccn2-c2ccc(Cl)cc2)c(OC)c1OC	-3.0	-3.1
Cc1cc(C(=O)NCc2ccc(-c3ncc(-c4ccc(N5CCOCC5)cc4)[nH]3)cc2)n(C(C)(C)C)n1	-1.7	-7.4
CC(C)NC(=O)C1CCCN(c2ccc(-c3ccc(Cl)cc3)nn2)C1 (configuration not stated)	-11.6	-15.3

Following part:
SMILES	NPYLR7 agonist	NPYLR7 agonist max-min
Cc1ccc2nc(N(CCCN3CCOCC3)C(=O)COc3ccccc3)sc2c1	-3.3	-5.8
COc1cc2c(cc1C1CC(=O)Nc3cc(O)c(C)cc31)CCC2 (configuration not stated)	-3.5	-16.8
CC(C)NC(=O)N(Cc1ccco1)Cc1cc(NC(=O)c2cccs2)ccc1N(C)C	26.1	32.4
Cc1nc[nH]c(=O)c1Br	-5.9	-6.6
O=C(c1ccc2nc(C3CCCCC3)oc2c1)N1CCCN(c2ncccn2)CC1	6.9	-1.0
c1ccc(-n2nnnc2NCC2CCCCC2)cc1	-16.2	-18.1
NC1CCCN(C(=O)c2ccc3n[nH]nc3c2)CC1 (configuration not stated)	4.7	4.4
CCOC(=O)c1nn(-c2ccccc2C)c(=O)cc1N1CCN(C(=O)OCC)CC1	3.6	0.0
O=[N+]([O-])c1ccc(OS(=O)(=O)c2cccc(Cl)c2Cl)c(Cl)c1	-1.0	-5.6
O=C(CSC12CC3CC(CC(C3)C1)C2)Nc1cccc(F)c1	2.1	1.3
C=CC(C)(O)CN(CCN1CCOCC1)Cc1ccccc1C (configuration not stated)	-1.9	1.5
CCn1nc(C)c(CNC(=O)CN2CCC(C)=N2)c1C	18.5	12.4
COc1ccc2[nH]c3c(c2c1)CCN(C(=O)/C=C/c1cccc(C(F)(F)F)c1)C3C(C)Cc1ccc2c(c1)OCO2 (configuration not stated)	-6.5	-8.4
Cn1c(O)c(N=Nc2cccc3c2CCCC3)c2ccccc21	5.6	1.8
COc1cccc(C(=O)CSc2nnc(NC(=O)C3CCCCC3)s2)c1	13.0	24.1
CCCc1cc(=O)n(CC(=O)NCCc2ccccc2)cn1	8.9	2.6
O=C(c1cn[nH]n1)N1CCOC(c2cc(F)c(Cl)cc2Cl)C1 (configuration not stated)	2.8	0.0
Cc1ccc(-n2ccc3nc(N4CCOCC4)ncc3c2=O)cc1	6.1	4.6
Cc1ccoc1C(=O)N1CCc2c(nc(-c3ccncc3)nc2N(C)C)C1	3.1	3.6
CC(C)(C)NC(=O)COC(=O)c1ccc(Br)o1	-3.5	-3.3

Continued, starting with the last three of the part before.
SMILES	NPYLR7 agonist	NPYLR7 agonist max-min
Cc1ccc(-n2ccc3nc(N4CCOCC4)ncc3c2=O)cc1	6.1	4.6
Cc1ccoc1C(=O)N1CCc2c(nc(-c3ccncc3)nc2N(C)C)C1	3.1	3.6
CC(C)(C)NC(=O)COC(=O)c1ccc(Br)o1	-3.5	-3.3
CCOC(=O)CCn1c(=O)c2c(nc3n(Cc4ccco4)c(C)cn23)n(C)c1=O	1.7	-2.1
O=C(CSc1nc(=O)n(CCCO)c2c1CCC2)Nc1ccc(F)c(F)c1	-9.5	-19.7
CCN(CC)S(=O)(=O)c1cccc(C(=O)NN=C(C)c2cc3ccccc3o2)c1	-7.8	-13.7
O=C(O)C1CC[C@@](C(=O)O)(c2ccccc2)c2ccccc21 (some centres not stated)	0.9	-0.5
COc1cccc(Cc2nsc(N3CCN(C(=O)Nc4cc(OC)cc(OC)c4)C(C)C3)n2)c1 (configuration not stated)	-8.6	-13.6
O=C(CN1CN(c2ccccc2)C2(CCN(C(=O)c3ccc(C(F)(F)F)cc3)CC2)C1=O)N1CCC(Cc2ccccc2)CC1	-5.3	6.1
N#Cc1c(-c2ccc(Br)cc2)cc(-c2ccccc2)nc1SCc1ccccc1	-3.9	-6.6
Cc1cc(C(=O)NC2CCN(Cc3ccn(C)c(=O)c3)CC2)no1	-5.2	-7.3
CN(C)c1ccc(C(=O)NC(c2ccccc2)c2ccccn2)cc1F (configuration not stated)	21.2	17.4
CCN1CCN(c2ccc(C(=O)Nc3cc(C)nn3C)cc2F)CC1	11.1	5.1
Nc1nc(-c2cc(F)ccc2F)cs1	14.5	18.8
Nc1n[nH]c(-c2ccc(Cl)s2)c1-c1ccc2c(c1)OCO2	-0.3	-0.2
Cc1ccc2nc(NC(=O)CSc3nc4c(c(=O)n3Cc3ccccc3)SCC4)sc2c1	4.7	-3.9
COc1ccc(Cl)cc1CNC(=O)Nc1nccs1	-0.8	-1.8
CCOC(=O)Cc1c(C)nc2ncnn2c1N1CCN(C(=O)c2ccc3nonc3c2)CC1	-1.2	-5.9
O=C(NCc1cccnc1)c1ccccc1N1CCC(NC(=O)C2CCCCC2)CC1	14.6	24.9

2 of the compounds above, with two lines to a compound.
Every second line gives: NPYLR7 agonist, NPYLR7 agonist max-min
- Cc1ccc2nc(NC(=O)CSc3nc4c(c(=O)n3Cc3ccccc3)SCC4)sc2c1
    4.7, -3.9
- COc1ccc(Cl)cc1CNC(=O)Nc1nccs1
    -0.8, -1.8

Seven successive records from above:
SMILES	NPYLR7 agonist	NPYLR7 agonist max-min
CCN1CCN(c2ccc(C(=O)Nc3cc(C)nn3C)cc2F)CC1	11.1	5.1
Nc1nc(-c2cc(F)ccc2F)cs1	14.5	18.8
Nc1n[nH]c(-c2ccc(Cl)s2)c1-c1ccc2c(c1)OCO2	-0.3	-0.2
Cc1ccc2nc(NC(=O)CSc3nc4c(c(=O)n3Cc3ccccc3)SCC4)sc2c1	4.7	-3.9
COc1ccc(Cl)cc1CNC(=O)Nc1nccs1	-0.8	-1.8
CCOC(=O)Cc1c(C)nc2ncnn2c1N1CCN(C(=O)c2ccc3nonc3c2)CC1	-1.2	-5.9
O=C(NCc1cccnc1)c1ccccc1N1CCC(NC(=O)C2CCCCC2)CC1	14.6	24.9
